PINK1 expr mod: modulators of PINK1 expression. PINK1 immunofluorescence, high-content cytometry, 24 h. Potency, µM (series often up to 76.6 µM), for the others: at the highest dose activation (PINK1 increase), most hits filed as activators. 0.2% of 410,000 active. AID 624263; active = well fitted activation curve with a large enough effect; inconclusive = small, poorly fitted or top-dose-only effect; inactive = flat fitted curve, though single readings scatter; cell line not stated here;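 also: potency is read from the fitted curve at half-maximal effect; % of control where 0% means no effect; nearly all actives have a fitted effect of over 65% in size; a mitochondrial uncoupler was the plate control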
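Stable cell line treated 24 h with compounds at 5 concentrations (CCCP controls), then fixed and immunostained for PINK1 plus nuclear and cell stains; PINK1 immunofluorescence quantified by laser-scanning microplate cytometry.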
CtBP-E1A inh: CtBP/E1A binding inhibition | AlphaScreen GST-E1A/His-CtBP binding, 1536-well; active compounds read low; control for the full effect not named in the record | activity change, % (test concentration not listed) | 0.49% of 340,000 active | AID 651724; in the data active means activity change below about -65%; inconclusive means about -30% to -65%; inactive means above about -30%; also: % is scaled to controls: 0 for no effect and ±100 for the full control effect
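Protein mix (5X: 125 nM each GST-E1A, His-CtBP) was incubated with pinned compound 2 h at 37 deg C in dark, in 50 mM Tris pH 8.0 buffer with 300 mM NaCl. Glutathione donor and nickel acceptor beads followed; AlphaScreen signal read after 1 h.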
Six1-Eya2 inh: blocks human Six1 binding to Eya2. AlphaScreen GST-Six1/His-Eya2 binding, biochemical; active compounds read low; control for the full effect not named in the record. Q15475+O00167. 0.56% of 360,000 active. activity change, % (concentration not given with the values); in the data active = activity change below about -65%; inconclusive = about -30% to -65%; inactive = above about -30%; also: % is scaled to controls: 0 for no effect and ±100 for the full control effect
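AlphaScreen luminescence read after one hour at 37 °C in darkness. Pin-transferred compounds met GST-Six1 and His-Eya2 protein (5X stock 250 nM/500 nM) plus glutathione donor and Ni-chelate acceptor beads (5X, 50 ug/mL).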
D2 potentiator: human D2 receptor positive allosteric modulation; 0.23% of 360,000 active; DiscoveRx D2 beta-arrestin cells, luminescence, 90 min; 100% = 57 uM dopamine signal; AID 624464; P14416; potentiation, % (no concentration beside the values); active = potentiation of 50% or more; inconclusive = 30% to 50%; inactive = 30% or less;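 also: compound concentration not given in the record; tested on top of an EC20 dose of dopamine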
Target sequence (P14416 whole entry, looked up): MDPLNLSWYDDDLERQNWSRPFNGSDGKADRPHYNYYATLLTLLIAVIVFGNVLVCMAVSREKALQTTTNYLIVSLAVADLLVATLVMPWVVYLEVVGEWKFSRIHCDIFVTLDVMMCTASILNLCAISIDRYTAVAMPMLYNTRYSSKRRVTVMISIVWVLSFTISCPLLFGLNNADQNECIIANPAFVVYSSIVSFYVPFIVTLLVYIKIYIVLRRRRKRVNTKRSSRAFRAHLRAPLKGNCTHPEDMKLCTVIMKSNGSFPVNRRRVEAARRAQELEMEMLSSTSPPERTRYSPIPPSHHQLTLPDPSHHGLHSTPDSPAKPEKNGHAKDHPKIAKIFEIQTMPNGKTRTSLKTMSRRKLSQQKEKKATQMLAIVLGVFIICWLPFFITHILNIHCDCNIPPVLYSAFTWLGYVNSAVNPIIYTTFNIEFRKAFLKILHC
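PathHunter D2 cells, attached overnight at 37 deg C, received compound in DMSO plus dopamine at EC20 (50 nM final) for 90 min at 37 deg C. Beta-arrestin recruitment was read as luminescence after 1 h with detection reagent at ambient temperature.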
D2 ag: human D2 receptor agonism in beta-arrestin assay. P14416. DiscoveRx PathHunter D2 beta-arrestin, luminescence, 90 min; 100% = 57 uM dopamine signal. activation, % (no concentration beside the values). 0.084% of 360,000 active. AID 624465; in the data active = activation above about 40%; inconclusive = about 15% to 40%; inactive = below about 15%; also: compound concentration not given in the record; the text of the record calls up to 30% inactive
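DiscoveRx PathHunter D2 beta-arrestin cells (2,100/well) attached overnight, then compound-stimulated 90 min at 37 C in HBSS/10 mM HEPES/0.1% Tween-20 buffer; beta-galactosidase complementation read by luminescence after 1 h at ambient temperature. Dopamine 57 uM final (EC100) as control.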
TRPML1 agonist: human mucolipin-1 channel agonism; Q9GZU1; activation, % (concentration not given with the values); 0.12% of 410,000 active; TRPML1-expressing cells, Ca2+ dye fluorescence, FDSS; host cell line not named in the record; reference of the full effect not given here; AID 624414; in the data active = activation above about 50%; inconclusive = about 30% to 50%; inactive = below about 30%; also: 0% is about no effect; the text of the record puts the active cut at 80%
Target sequence (Q9GZU1 whole entry, looked up): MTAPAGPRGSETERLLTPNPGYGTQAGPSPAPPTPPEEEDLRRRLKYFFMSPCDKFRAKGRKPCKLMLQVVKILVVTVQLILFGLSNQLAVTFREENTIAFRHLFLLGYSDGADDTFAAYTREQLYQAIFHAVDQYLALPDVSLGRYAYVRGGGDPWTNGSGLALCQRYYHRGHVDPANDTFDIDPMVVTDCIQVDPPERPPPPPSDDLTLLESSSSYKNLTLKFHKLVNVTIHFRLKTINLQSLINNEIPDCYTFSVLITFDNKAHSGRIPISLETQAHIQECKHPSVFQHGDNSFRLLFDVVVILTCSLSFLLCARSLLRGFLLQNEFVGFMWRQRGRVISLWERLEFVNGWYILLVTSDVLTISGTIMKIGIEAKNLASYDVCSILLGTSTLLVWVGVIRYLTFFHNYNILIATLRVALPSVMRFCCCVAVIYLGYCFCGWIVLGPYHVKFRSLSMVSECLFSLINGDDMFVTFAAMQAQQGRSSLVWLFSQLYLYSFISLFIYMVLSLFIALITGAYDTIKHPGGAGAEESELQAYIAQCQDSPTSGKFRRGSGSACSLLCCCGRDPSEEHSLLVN
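In this qHTS format, compounds were pin-transferred onto Ca8-dye-loaded TRPML1-DL cells induced with Tet overnight, and intracellular Ca2+ fluorescence was recorded kinetically for 110 s after a 10 s baseline. A subsequent 4uM final 54-4 (EC80) addition followed by a second 110 s read served as the antagonist phase.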
Numbers without * were called inactive; u = inconclusive; x = not tested or not shown; & = joins results of further samples; [ ] = dose if it differs, or a comment. The order is random. About 1.3% of those tested had a hit in this group.

SMILES	PINK1 expr mod	CtBP-E1A inh	Six1-Eya2 inh	D2 potentiator	D2 ag	TRPML1 agonist
Cn1nnc(NC(=S)NC(=O)c2ccc(-c3ccc(Br)cc3)o2)n1	-0.4%	-69*	-72*	-15	-6.8	0.8
CSCCC(NS(=O)(=O)c1ccc2c(c1)oc(=O)n2C)C(=O)NC1CCCCC1 (stereo not given)	1.3%	-8	1	-6	-0.7	0.0
Cc1ccc(NC(=O)C(=O)NC(C)C2COc3ccccc3O2)cc1 (stereo not given)	7.5%	15	3	-13	-0.6	1.5
N#Cc1c(N)nc(SCC(=O)OCc2ccccc2)c(C#N)c1-c1ccco1	18%	-4	-1	5	-1.3	2.5
CCOc1ccc(CCNC(=O)CCNS(=O)(=O)c2ccc(Br)cc2)cc1OCC	1.4%	2	4	-11	-1.2	0.1
COC(=O)C1=C(C)N(CCc2c[nH]c3ccccc23)C(=O)/C1=C\N(C)C	0.0%	x	5	-20	1.3	0.9
CCOC(=O)C1=C(c2ccccc2)ON(C)C1c1ccccc1 (stereo not given)	2.5%	6	6	-11	-0.5	-0.4
NC(=O)CN1CCCC1c1ccc2c(c1)OCCO2 (stereo not given)	-1.0%	3	-1	-3	-2.3	0.3
CC(NC(=O)COC(=O)COc1ccc(C(=O)c2ccccc2)cc1)c1ccccc1 (stereo not given)	0.3%	0	20	1	9.3	3.0
O=C1OCc2cc(-n3cccc3)ccc21	-0.5%	-1	3	-2	-2.5	-0.4
CN(Cc1ccccc1)C(=O)c1[nH]cnc1C(=O)NCc1ccc(CNC(=O)OC(C)(C)C)cc1	0.1%	4	1	8	-1.5	0.9
CN1CCc2c(C#N)c(N3CCCCC3)nc(NCc3ccccc3)c2C1	3.1%	-9	-14	-7	-2.0	0.0
CC(C)=CCc1c(O)cc2c(c1O)C(=O)CC(c1ccccc1)O2 (stereo not given)	6.2%	6	0	0	-2.7	0.1
CCOC(=O)C(=C1Nc2ccccc2N1)n1c(-c2ccco2)nc2ccccc21	5.3%	-9	-13	x	x	0.8
C=CCN(C(=O)c1cccc(N2C(=O)C3CC=CC(C)C3C2=O)c1)c1ccccc1 (stereo not given)	-1.0%	-1	8	-5	-6.2	-0.7
Cn1c(=O)c(=O)n(C)c2cc(S(=O)(=O)N3CCCC3C(=O)NCc3cccnc3)ccc21 (stereo not given)	1.1%	5	6	-1	4.4	1.0
CCC(C)c1ccccc1NC(=O)c1[nH]c(C)c(C(C)=O)c1C (stereo not given)	-0.8%	-8	18	-9	-4.2	2.3
COc1ccccc1NS(=O)(=O)c1ccc(C(=O)N2CCN(c3ccccc3)CC2)cc1	1.8%	x	16	-7	-2.5	0.1
Cc1cc(C(=O)CSc2nnc3c(Cl)cc(Cl)cn23)c(C)n1C	-1.9%	1	7	-5	-1.7	0.5
Cc1ccc(N2C(=O)c3cccc(Oc4ccc(Cl)cc4)c3C2=O)c(C)c1	1.4%	x	4	-12	-1.1	4.1
Cn1c2ccccc2c(=O)c2ccc(C#CC3(O)CCCCC3)cc21	-1.1%	17	8	u	u	0.8
CCNc1nc(SCCOc2ccc(Br)cc2)nc(N(C)C)n1	7.1%	x	13	-9	-7.7	0.6
Cc1cc(NCCCCCCCNc2cc(C)nc3cc([N+](=O)[O-])ccc23)c2ccc([N+](=O)[O-])cc2n1	-4.6%	-8	-9	-5	u	-0.2
Cc1ccc(S(=O)(=O)N2C[C@H]3C(=O)C[C@@H](c4ccc(Cl)cc4)N(S(=O)(=O)c4ccc(C)cc4)[C@H]3C[C@H]2c2cccc3ccccc23)cc1	0.8%	-4	-5	5	-3.6	2.1
Cc1cccc(C)c1N1CCN(S(=O)(=O)N2CCOCC2)CC1	0.9%[38.3 µM]	4	4	-8	-0.1	1.8

Later entries
SMILES	PINK1 expr mod	CtBP-E1A inh	Six1-Eya2 inh	D2 potentiator	D2 ag	TRPML1 agonist
COc1ccc(S(=O)(=O)N2CCN(S(=O)(=O)c3ccc(C(F)(F)F)cc3)CC2)cc1C	6.1%	-20	4	-4	-4.0	0.5
Cc1ccccc1OCC(O)Cn1c(NCc2ccco2)nc2c1c(=O)[nH]c(=O)n2C (stereo not given)	4.1%[38.3 µM]	-18	-7	-4	0.5	-0.5
COc1cc(OC)c(NC(=O)Cn2cccc2)cc1Cl	1.9%[38.3 µM]	-15	-8	-8	-2.6	3.5
CC1(Cc2ccc(C(F)(F)F)o2)C(=O)Nc2ccc(-c3cccc(C(F)(F)F)c3)cc21 (stereo not given)	-1.4%	-7	3	0	6.1	1.2
CCOc1ccccc1C(=O)NC(C)c1ccc(-n2ccnc2)cc1 (stereo not given)	0.2%	-2	-13	2	0.7	1.0
O=C(CCc1nc(-c2ccc(Cl)cc2)no1)NC1CCCC1	-0.4%	x	-10	3	2.8	1.0
O=C(Cn1cnc2c(nnn2Cc2ccc(F)cc2)c1=O)Nc1ccc2c(c1)OCCO2	5.1%	x	7	-6	2.2	0.8
CC(=O)c1ccc(NC(=S)NCCc2ccccn2)cc1	1.3%	-5	10	2	0.6	-0.3
Cc1cc(Br)ccc1SCC(=O)OCC(=O)Nc1ccccc1C#N	0.7%	24	15	-1	-3.2	4.6
CC(C)(C)c1cc(C(=S)N2CCCC2)cc(C(C)(C)C)c1O	5.4%	x	-3	-16	-5.2	-0.4
CC(C)c1ccc(N(CC(=O)NCc2ccc(F)cc2)C(=O)c2csnn2)cc1	1.5%	5	1	-13	1.6	2.2
Cn1nnnc1SCSc1nnnn1C	-0.4%	0	9	2	-0.4	0.3
COc1cc(NS(=O)(=O)c2cc(NC(C)=O)ccc2OC)c(OC)cc1NC(=O)c1ccccc1	1.9%	1	-13	7	3.5	2.1
CC1CN(CCOCCSc2ccccc2)CC(C)O1 (stereo not given)	0.6%	x	6	-15	0.7	0.6
O=C(NN=C1CCCCC1)c1ccccc1OCc1ccc(F)cc1	0.8%	x	2	-7	2.7	2.0
CCN(CC)S(=O)(=O)c1ccc(N2CCOCC2)c(NC(=O)c2ccc(N3CCCC3=O)cc2)c1	-1.9%	7	6	19	5.1	0.6
O=C(CSCc1c(Cl)cccc1Cl)Nc1nccs1	x	-2	2	-7	0.7	0.2
O=C(CCN1C(=O)C2C3C=CC(C3)C2C1=O)Nc1ccc2ncccc2c1 (stereo not given)	-2.3%	-3	-9	28	0.4	-0.2
Cc1cc(NC(=O)c2cc(-c3cccs3)nc3ccccc23)no1	9.6%	1	-11	-2	7.0	0.8
O=C(CSc1ncnc2nc[nH]c12)c1ccc([N+](=O)[O-])cc1	27%	-20	-11	56*	14	0.7
CCC(=O)Nc1cc(C(=O)NCC2CCCN2CC)c(OC)cc1N(C)C (stereo not given)	3.3%[38.3 µM]	6	3	-21	-0.4	1.0
O=C(c1[nH]c(C(F)(F)F)nc1-c1ccccc1)N1CCN(Cc2c(F)cccc2Cl)CC1	0.4%	-7	-4	-3	-3.5	-0.4
CCCNC(=O)C(Cc1ccc(C(F)(F)F)cc1)NC(=O)c1ccc2ccccc2n1 (stereo not given)	5.4%	8	7	-7	-6.1	-0.1
CC1CC(C)CN(S(=O)(=O)c2ccc3c(c2)C(C)(C)C(=O)N3C)C1 (stereo not given)	1.1%	9	1	0	0.4	-0.6
CCCn1nnnc1NCc1ccc(Cl)cc1Cl	3.3%	3	4	-6	-3.4	-0.3

Of the compounds above, 6 contain an NH in an aromatic ring:
SMILES	PINK1 expr mod	CtBP-E1A inh	Six1-Eya2 inh	D2 potentiator	D2 ag	TRPML1 agonist
COC(=O)C1=C(C)N(CCc2c[nH]c3ccccc23)C(=O)/C1=C\N(C)C	0.0%	x	5	-20	1.3	0.9
CN(Cc1ccccc1)C(=O)c1[nH]cnc1C(=O)NCc1ccc(CNC(=O)OC(C)(C)C)cc1	0.1%	4	1	8	-1.5	0.9
CCC(C)c1ccccc1NC(=O)c1[nH]c(C)c(C(C)=O)c1C (stereo not given)	-0.8%	-8	18	-9	-4.2	2.3
Cc1ccccc1OCC(O)Cn1c(NCc2ccco2)nc2c1c(=O)[nH]c(=O)n2C (stereo not given)	4.1%[38.3 µM]	-18	-7	-4	0.5	-0.5
O=C(CSc1ncnc2nc[nH]c12)c1ccc([N+](=O)[O-])cc1	27%	-20	-11	56*	14	0.7
O=C(c1[nH]c(C(F)(F)F)nc1-c1ccccc1)N1CCN(Cc2c(F)cccc2Cl)CC1	0.4%	-7	-4	-3	-3.5	-0.4

Remaining list, next part.
SMILES	PINK1 expr mod	CtBP-E1A inh	Six1-Eya2 inh	D2 potentiator	D2 ag	TRPML1 agonist
Cc1ccc(S(=O)(=O)N2CC(O)CC2C(=O)OCc2nc3sc(C)c(C)c3c(=O)[nH]2)cc1 (stereo not given)	3.0%	7	1	-18	-2.9	-0.1
O=C(Cc1ccccc1)NCC(=O)Nc1cccc(Cl)c1	3.5%	1	1	-4	-0.6	0.7
Cc1cc(C)nc(N(C#N)CC(=O)N(c2ccccc2)C(C)C)n1	-2.3%	1	6	-17	-3.4	0.6
CSc1nc(=S)n(Cc2ccccc2)c(C)c1C(C)=O	-1.1%	2	3	-6	3.6	0.2
CCOC(=O)c1sc(Nc2nc3cc4c(cc3s2)OCO4)cc1C	8.9%	-6	2	19	7.3	0.7
Cc1ccc(-c2nnc(SCc3nc4ccccc4[nH]3)n2Cc2ccco2)cc1	3.9%[38.3 µM]	3	1	0	-3.3	2.1
Cc1ccccc1C(=O)NC(=S)Nc1ccccc1C(=O)O	-0.8%	0	17	9	-3.8	1.1
Cc1ccc(OCCC(=O)N2CCN(c3ccc(O)cc3)CC2)cc1	1.9%	-6	-3	4	7.9	-0.3
COc1ccc(OC(=O)COc2ccc(Cl)cc2)cc1	-1.2%	46	16	-2	-1.3	0.9
O=C(/C=C/c1cccc(F)c1)Nc1nccs1	8.5%	-2	-3	-2	-3.3	-0.7
COc1ccc(NS(=O)(=O)c2ccc(C)c(C(=O)NC3CCN(Cc4ccccc4)CC3)c2)cc1	1.4%	0	-4	-44	-3.1	1.5
CCOc1ccc(NC(=O)COn2nnc3ccc(S(=O)(=O)N4CCOCC4)cc32)cc1	-1.2%	4	-1	-6	2.0	0.9
O=C(Nc1cccc(NC(=O)c2ccc(-c3cccc(Br)c3)o2)c1)c1ccco1	x	10	-8	-1	2.6	1.2
CCN(CC)c1ccc(/C=N/N2C(=O)c3ccccc3C2=O)cc1	-0.4%	3	-26	-15	-0.7	1.4
O=C(N/N=C/c1ccc(Br)o1)/C(=C/c1ccc([N+](=O)[O-])cc1)NC(=O)c1ccccc1	x	8	-19	2	0.6	0.8
Cc1cc(-c2cccs2)nc(-n2cccc2)n1	6.8%	24	13	4	1.0	0.3
O=C(CSc1nnnn1C1CC1)N1CCN(c2ccccc2F)CC1	0.4%	-3	6	-4	9.2	-0.1
COCCNc1oc(/C=C/c2cccs2)nc1S(=O)(=O)c1ccccc1	1.2%	4	20	-14	1.0	-1.2
C[C@@H](CSc1ccccc1)CN1CC[C@H](O)CCC1=O	0.1%	1	3	-10	-1.4	0.6&-0.3
O=C(COC(=O)C1C2CC3OC(=O)C1C3C2)Nc1ccc(Br)cc1 (stereo not given)	0.0%	12	-4	-1	-4.2	6.2
C/C(=N\Nc1nc2ccccc2nc1C)c1ccccc1O	u	0	-2	-4	2.6	1.6
COc1ccccc1Cn1c(=S)[nH]c2ccc(F)cc2c1=O	5.2%	0	-4	-10	-0.2	0.1
